Screens from PubChem.
FPRL1 binder: ligands of human FPRL1, also counter-screen for FPR ligands | P25090 | FPRL1-expressing cells, fluorescent ligand binding inhibition, flow cytometry | inhibition, %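 (tested at 6.7 µM)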 | 24,000 compounds, 0.3% hits;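 also: 0% = buffer alone and 100% = receptor blocker peptide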
Target sequence (P25090 whole entry, looked up): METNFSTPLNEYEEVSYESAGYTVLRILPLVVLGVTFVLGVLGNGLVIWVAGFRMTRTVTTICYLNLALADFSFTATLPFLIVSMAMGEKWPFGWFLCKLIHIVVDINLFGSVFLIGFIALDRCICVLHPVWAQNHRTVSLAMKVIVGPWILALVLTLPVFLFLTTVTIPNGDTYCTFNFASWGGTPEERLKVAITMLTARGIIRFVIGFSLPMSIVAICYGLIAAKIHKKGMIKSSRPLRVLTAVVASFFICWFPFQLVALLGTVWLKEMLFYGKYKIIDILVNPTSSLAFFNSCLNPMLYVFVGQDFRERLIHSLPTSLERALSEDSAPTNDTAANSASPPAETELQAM
VCAM-1 up imaging: enhancers of VCAM-1 display on endothelial cells, imaging, high-content imaging, pooled HUVEC, TNFa stimulus (AID 457). calls only. Pooled HUVEC, TNFa-induced VCAM-1 immunofluorescence imaging; hits of this screen are not shown here. 10,000 compounds, 0.2% hits;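 active = a top-ranked rise in VCAM-1 staining upheld on image or statistical review; inactive = the rest, including candidates rejected on review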;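 also: compounds tested at 5 µM in the well; cells exposed to compound for 24 hours before fixing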
FPR binder: ligands of human FPR, also counter-screen for FPRL1 ligands | FPR-expressing cells, fluorescent ligand binding, flow cytometry | 24,000 compounds, 0.74% hits | inhibition, %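 (tested at 6.7 µM)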 | AID 440 | P21462;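 also: 0% = buffer wells and 100% = receptor blocker peptide wells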
Target sequence (P21462 whole entry, looked up): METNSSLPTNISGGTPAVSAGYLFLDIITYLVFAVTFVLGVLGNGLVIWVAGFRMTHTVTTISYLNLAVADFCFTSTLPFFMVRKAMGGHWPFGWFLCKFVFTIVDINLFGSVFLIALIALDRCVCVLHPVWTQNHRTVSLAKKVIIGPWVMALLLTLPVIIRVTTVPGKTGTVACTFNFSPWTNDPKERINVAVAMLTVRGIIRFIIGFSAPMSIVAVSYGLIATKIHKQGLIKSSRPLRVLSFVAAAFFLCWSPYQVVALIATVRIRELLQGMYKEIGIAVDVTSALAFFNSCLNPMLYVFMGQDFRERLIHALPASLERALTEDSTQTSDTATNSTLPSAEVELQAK
VCAM-1 down imaging: suppression of endothelial VCAM-1 upregulation – imaging, high-content imaging, pooled HUVEC, TNFa stimulus (AID 456); HUVEC TNFa-induced VCAM-1 surface expression, immunofluorescence imaging; numbers were filed only for top-ranked candidate wells; inhibition, % at 5 µM; hits with a dose series show IC50 in µM; 10,000 compounds, 0.2% hits;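 active = top tenth filtered wells with inhibition above zero that passed visual or statistical confirmation; inactive = the rest, including hits rejected on review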;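 also: 0% = stimulated vehicle wells and 100% = unstimulated cells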
VCAM-1 inhibition: inhibitors of TNFa-induced VCAM-1 surface display, cell-based, plate reader, pooled HUVEC, TNFa stimulus (AID 454); HUVEC TNFa-induced VCAM-1 surface immunofluorescence, plate reader; numbers were filed only for top-ranked candidate wells; inhibition, % at 5 µM; 10,000 compounds, 0.2% hits;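 active = compound among top-ranked inhibitors of TNF-induced VCAM-1 adhesion protein staining, with the hit upheld by image or statistical review; inactive = the rest, including hits rejected on review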;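 also: 0% = TNFa with vehicle and 100% = cells without TNFa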
Numbers without * were called inactive; i = inactive; · = no result given.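 The calls were made as follows, unless noted: active = mean above 30%; inconclusive = self-fluorescent; inactive = the rest.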

Every second line gives: FPRL1 binder | VCAM-1 up imaging | FPR binder | VCAM-1 down imaging | VCAM-1 inhibition
- Cn1c(C(=O)OC(C(=O)NC2CCCC2)c2cccnc2)cc2sccc21 (stereo not drawn)
  1 | i | -1 | i | i
- COc1ccc(N2CCN(c3ccc(NC(=O)C4CCCCC4)cc3C#N)CC2)cc1
  1 | i | -2 | i | i
- CC(C)N(Cc1nc(-c2ccccc2)no1)C(=O)COc1ccccc1
  -6 | · | 0 | · | ·
- CC(C)c1ccc(-c2nc(N3CCOCC3)[nH]c(=O)c2C#N)cc1
  -6 | i | -22 | i | i
- Cn1cccc1Cc1nnc(SCC(=O)Nc2ccc3c(c2)OCO3)n1-c1ccc(F)cc1
  -2 | · | 5 | · | ·
- COc1ccc(N(CC(=O)N2CCCCC2)S(=O)(=O)c2ccccc2)c(OC)c1
  1 | i | 8 | i | i
- O=C(OCC#CCSc1nnc(-c2ccc(Br)cc2)o1)c1ccco1
  1 | · | -1 | · | ·
- CCOC(=O)c1ccccc1NC(=O)CC(C)CC(=O)O (stereo not drawn)
  -6 | · | -3 | · | ·
- COC(=O)C1=C(N)Oc2cc(C)[nH]c(=O)c2C1c1ccncc1 (stereo not drawn)
  3 | i | 18 | i | i
- COc1ccc(-c2nc(CCNC(=O)c3ccco3)cs2)cc1OC
  10 | i | 10 | i | i
- CC(NC(=O)c1cccs1)C(c1cccs1)N1CCN(Cc2ccccc2)CC1 (stereo not drawn)
  2 | · | 3 | · | ·
- COc1ccccc1Nc1ncnc2c1cnn2-c1cccc(C)c1
  -11 | i | -9 | i | i
- Cc1noc(C)c1S(=O)(=O)N(CC(=O)NCc1ccc2c(c1)OCO2)c1ccc(C(C)C)cc1
  4 | · | -2 | · | ·
- COc1ccc(N(CC(=O)Nc2ccc(F)c(Cl)c2)S(=O)(=O)c2c(C)noc2C)cc1
  0 | i | 7 | i | i
- CCOC(=O)c1c(C)c(C(=O)NCCCOC)c(C)n1C
  -3 | · | 0 | · | ·
- O=C(NCCSCc1ccco1)Nc1cccc(Cl)c1
  11 | i | 4 | i | i
- N/C(Cn1nnc(-c2ccccc2)n1)=N\O
  5 | i | 3 | i | i
- CCOC(=O)N1CCC(c2nc3ccccc3[nH]2)CC1
  -3 | · | 0 | · | ·
- COc1cccc(/C(O)=C2/C(=O)C(=O)N(c3cc(C)on3)C2c2cccs2)c1 (stereo not drawn)
  1 | · | -5 | · | ·
- Cc1nnc(NC(=O)NC(C)N2C(=O)C3C4C=CC(C4)C3C2=O)s1 (stereo not drawn)
  -6 | · | -2 | · | ·

The closing 5 entries of the part above lead into the next.
Every second line gives: FPRL1 binder | VCAM-1 up imaging | FPR binder | VCAM-1 down imaging | VCAM-1 inhibition
- O=C(NCCSCc1ccco1)Nc1cccc(Cl)c1
  11 | i | 4 | i | i
- N/C(Cn1nnc(-c2ccccc2)n1)=N\O
  5 | i | 3 | i | i
- CCOC(=O)N1CCC(c2nc3ccccc3[nH]2)CC1
  -3 | · | 0 | · | ·
- COc1cccc(/C(O)=C2/C(=O)C(=O)N(c3cc(C)on3)C2c2cccs2)c1 (stereo not drawn)
  1 | · | -5 | · | ·
- Cc1nnc(NC(=O)NC(C)N2C(=O)C3C4C=CC(C4)C3C2=O)s1 (stereo not drawn)
  -6 | · | -2 | · | ·
- O=C(COc1ccc(Cl)cc1)Nc1ncccn1
  -7 | i | -9 | i | i
- c1ccc(CC2CCN(C(c3cccs3)c3nnnn3C3CCCC3)CC2)cc1 (stereo not drawn)
  9 | i | 0 | i | i
- CCOC(=O)c1sc(N)c(C(=O)OCC)c1COC(=O)C1CC(=O)N(Cc2ccco2)C1 (stereo not drawn)
  -1 | i | -7 | i | i
- Cc1cc(C)c2nc(N3CCCC(C(=O)NCCN4CCOCC4)C3)sc2c1 (stereo not drawn)
  -2 | · | -4 | · | ·
- CC1C=CC(C)C(C(=O)O)C1C(=O)O (stereo not drawn)
  -3 | i | -2 | i | i
- c1ccc(CN2CCN(c3ncnc4c3[nH]c3ccccc34)CC2)cc1
  6 | i | -2 | i | i
- Cc1ncoc1C(=O)NCc1ccccc1Cl
  -3 | · | -4 | · | ·
- CCN(CC)CCCNC(=O)c1nn(-c2cccc(OC)c2)c(=O)c2ccccc12
  -3 | · | 0 | · | ·
- COc1ccc(CCNC(=O)CCN2C(=O)COc3ccccc32)cc1OC
  -1 | · | 1 | · | ·
- CCN(CC)S(=O)(=O)c1ccc2[nH]cc(C(=O)NCCc3ccc(OC)c(OC)c3)c(=O)c2c1
  5 | · | -1 | · | ·
- Cc1nn(Cc2ccc(Cl)cc2)c(C)c1NC(=O)c1noc2c1CCCCC2
  2 | · | 3 | · | ·
- Cc1cc(C(=O)NCc2cccnc2)n(-c2ccccc2)n1
  -4 | i | -8 | i | i
- O=C(O)C1CSC2c3ccccc3C(=O)N12 (stereo not drawn)
  6 | i | 5 | i | i
- N#CC1=C(N)N2C(=C(C#N)C13CCCCC3)SC1CCCCC12O (stereo not drawn)
  0 | i | 11 | i | i
- N#CN(CC(N)=O)c1nc(N2CCCCC2)nc(N2CCCCC2)n1
  4 | · | -7 | · | ·
- O=C(C1CCC(=O)N1C1CCCCC1)N1CCN(c2ccc(F)cc2)CC1 (stereo not drawn)
  -4 | · | 2 | · | ·
- COc1ccc(S(=O)(=O)NC(CC(=O)NCc2ccco2)C(C)C)cc1 (stereo not drawn)
  1 | · | 2 | · | ·
- COC(=O)c1ccc2c(=O)n(CCC3=CCCCC3)c(SCC(=O)N3CCCC3)nc2c1
  3 | · | 10 | · | ·
- O=C(Cc1coc(-c2ccc(F)cc2)n1)Nc1ccccc1
  6 | · | -2 | · | ·
- CCOC(=O)C1CCN(C(=O)CNS(=O)(=O)c2cccs2)CC1
  -1 | · | 3 | · | ·

The listing continues:
| SMILES | FPRL1 binder | VCAM-1 up imaging | FPR binder | VCAM-1 down imaging | VCAM-1 inhibition |
| --- | --- | --- | --- | --- | --- |
| Clc1cccc(N2CCN(CCNc3nc4ccccc4n4cnnc34)CC2)c1 | -7 | · | 0 | · | · |
| CCN(CC)CCCN1C(=O)C(O)=C(C(C)=O)C1c1ccc(OC)cc1OC (stereo not drawn) | 14 | · | 9 | · | · |
| O=C1CCc2cc(S(=O)(=O)N3CCC(C(=O)NCc4ccccc4Cl)CC3)ccc2N1 | 0 | · | 1 | · | · |
| CCc1ccc(S(=O)(=O)NCc2csc(-c3ccccc3)n2)s1 | 8 | · | 8 | · | · |
| O=C(NC1CCCCCCC1)c1ccc2c(c1)N(Cc1ccc(F)cc1)C(=O)CS2=O (stereo not drawn) | 3 | · | 11 | · | · |
| COc1ccc(CCNC(=O)CCCn2c(=O)[nH]c3cc(OC)c(OC)cc3c2=O)cc1OC | 8 | · | 3 | · | · |
| O=C(Cc1ccc(-n2cccc2)cc1)NCc1cccs1 | 4 | · | 7 | · | · |
| CC(=O)c1n[nH]nc1NC(=O)c1ccccc1 | 0 | i | -6 | i | i |
| Cc1ccc2cc(C#N)c(N3CCCC3)nc2c1C | -5 | i | 2 | i | i |
| CCOc1ccccc1C(=O)n1nc2nc(C)cc(C)c2c1N | -2 | · | -8 | · | · |
| COc1ccc(OC)c(NC(=O)CN(c2ccc(C(C)C)cc2)S(=O)(=O)c2c(C)noc2C)c1 | -4 | · | 2 | · | · |
| OC(CNCCc1ccccc1)c1ccccc1 (stereo not drawn) | -1 | i | -3 | i | i |
| CCCCn1cnc2c(cnn2-c2ccc(F)cc2)c1=O | -14 | · | -7 | · | · |
| CCC1CCCCN1CCCNC(=O)Cn1nc(-c2ccccc2)ccc1=O (stereo not drawn) | 3 | · | -2 | · | · |
| Cc1ccc2c(CC(=O)OCc3csc(C)n3)coc2c1 | -3 | i | -1 | i | i |
| O=C(CSc1nnc(COc2ccc(Cl)cc2)o1)OC1CCCCC1 | 0 | i | -11 | i | i |
| Cc1ccc2[nH]c3c(c2c1)CCc1cn[nH]c1-3 | -6 | i | 6 | i | i |
| CNC(=O)CN(c1cc(C)ccc1OC)S(=O)(=O)c1ccc(C)cc1 | 7 | i | -1 | i | i |
| CCCCNC(=O)Cn1c(=O)n(C)c2ccccc21 | -2 | i | 3 | i | i |
| CCSc1nnc(Cn2c(=O)sc3ccccc32)n1C | -4 | · | 2 | · | · |
| O=C(NCc1ccco1)c1nnc(Cc2ccc(F)cc2)o1 | 2 | · | 0 | · | · |
| O=C(O)C1C2C=CC(C2)C1C(=O)N1CCOCC1 (stereo not drawn) | -6 | · | 6 | · | · |
| COCCN1Cc2cccc(C(=O)Nc3ccccc3OC)c2C1=O | -8 | · | -4 | · | · |
| COc1ccc(-c2nc(SCC(=O)NCc3ccco3)c(-c3ccccc3)[nH]2)cc1OC | 1 | · | 9 | · | · |
| Cc1ccc(CSC2=Nc3ccccc3C3=NC(CCC(=O)NCc4ccco4)C(=O)N23)cc1 (stereo not drawn) | 2 | · | 13 | · | · |
| O=C(O)C1C2C=CC(C2)C1C(=O)N1CCN(C/C=C/c2ccccc2)CC1 (stereo not drawn) | -1 | · | -1 | · | · |
| Cc1cccc(-n2c(CNC(=O)COc3ccccc3)nnc2SCC(=O)Nc2nccs2)c1 | 1 | · | 2 | · | · |
| COc1cc2[nH]c(=O)n(CCCC(=O)NCCc3ccccc3)c(=O)c2cc1OC | 6 | · | 2 | · | · |
| CCCCn1c(C(C)NC(=O)COC)nc2ccccc21 (stereo not drawn) | -7 | · | -2 | · | · |
| CCOC(=O)N1CCC(NC(=O)Cn2cccc2C(=O)c2ccccc2)CC1 | 15 | · | -1 | · | · |
| CC(=O)c1cc2c(cc1NC(=O)CN1CCN(C(=O)c3ccco3)CC1)OCO2 | 0 | i | -1 | i | i |
| COc1cccc(CNc2ccc(F)c(Cl)c2)c1O | -5 | · | 0 | · | · |
| Cc1sc2nc(SCC(=O)Nc3c(C)n(C)n(-c4ccccc4)c3=O)n(C)c(=O)c2c1C | -1 | i | -4 | i | i |
| N#Cc1nc(COc2ccc(Br)cc2)oc1N1CCCC1 | 2 | i | 2 | i | i |
| CCCC(=O)NC(C)C(c1cccs1)N1CCN(c2ccccc2)CC1 (stereo not drawn) | 16 | · | 6 | · | · |
| COc1ccccc1C(=O)N1CCN=C1SCc1cccnc1 | 4 | i | 0 | i | i |
| CCCS(=O)(=O)N1CCCC(C(=O)NCCCN2CCN(c3ccc(F)cc3)CC2)C1 (stereo not drawn) | 9 | · | -6 | · | · |
| COc1ccc(-c2cc(C(=O)NCCc3ccccc3)no2)cc1OC | -2 | i | -1 | i | i |
| CCOc1ccc(C(=O)Nc2c(C(N)=O)oc3ccccc23)cc1 | 2 | · | 3 | · | · |
| Cc1ccc(Cn2ccc(NC(=O)c3cc(-c4cccs4)on3)n2)cc1 | -1 | i | -2 | i | i |
| O=c1c2cc(N3CCOCC3)ccc2[nH]c(=S)n1CCN1CCCC1 | -1 | · | -7 | · | · |
| CC1CCCC(C(=O)OCc2ccccc2)N1 (stereo not drawn) | 0 | i | 2 | i | i |
| CCN(CC)S(=O)(=O)c1ccc2oc(C(=O)N3CCCCCC3)c(C)c2c1 | -5 | · | 10 | · | · |
| COc1cccc(-n2c(C)nc3c(cnn3-c3ccc(Cl)cc3)c2=O)c1 | 4 | i | 9 | i | i |
| COc1cccc(C2C(C(=O)OC(C)C)=C(C)Nc3ncnn32)c1 (stereo not drawn) | -11 | · | -6 | · | · |
| CCOC(=O)C1CCN(C(C(=O)Nc2ccc3c(c2)OCCO3)c2ccccc2)CC1 (stereo not drawn) | 0 | · | 7 | · | · |
| Cc1ccc(C(C)C)c(OCCn2c(=O)oc3ccccc32)c1 | -1 | i | -10 | i | i |
| Cc1ccc(C)c(S(=O)(=O)C(C#N)c2nc3ccccc3nc2N2CC(C)OC(C)C2)c1 (stereo not drawn) | -6 | i | 10 | i | i |
| CC1C=CCC2C(=O)N(c3cccc(C(=O)N4CCN(c5ccc(F)cc5)CC4)c3)C(=O)C12 (stereo not drawn) | -12 | · | -1 | · | · |
| c1ccc(-c2cc(-c3nc(-c4ccccn4)no3)c3ccccc3n2)cc1 | -2 | i | -7 | i | i |

These rows are one share of the data. The share of hits here may be higher or lower than overall.
